Bioassay records deposited in PubChem BioAssay by Broad Institute.
Vaccinia stage = blocks a specific stage of Vaccinia orthopoxvirus infection. Vaccinia-infected cells, mCherry/Venus stage reporter fluorescence; active compounds read low; some inactives read as strong as hits. activity change (mCherry), % (no concentration beside the values). actives 0.01% (n = 89,000). AID 1053133;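 active = mCherry past -33% and 40 or more points under the early reporter, replicates agreeing; inconclusive = past -33% without that gap or agreement; tested in A549 cells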;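 note: scaled between vehicle wells and reference inhibitor wells; 23 nL library stock went into each well; one replicate is shown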
Vaccinia stage Venus = further read-out of Vaccinia stage, marked with its call; activity change (Venus), %; measured here: Venus reporter, other viral stage;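 negative = less Venus signal; first of two replicates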
* marks the source's active call; other numbers are inactive results; ? = inconclusive; . = no result given. The list is partial (hit frequency here may not be typical).

Each structure is followed by: Vaccinia stage, Vaccinia stage Venus
- C[C@@H]1CN([C@@H](C)CO)C(=O)Cc2cc(NC(=O)Nc3cccc4ccccc34)ccc2O[C@H]1CN(C)Cc1ccc(C(F)(F)F)cc1
  -3, 8
- Cc1ccccc1-c1ccc(C2[C@@H]3CN(C(=O)c4ccc(F)cc4)C[C@H]2N3)cc1 (stereo partly drawn)
  ?, -5
- CO[C@@H]1CN(C)C(=O)c2cc(NC(=O)c3ccccc3)ccc2OC[C@@H](C)N(C(=O)C2CC2)C[C@H]1C
  11, 12
- COCc1cn(CC[C@@H]2CC[C@H](NC(=O)Nc3ccccc3)[C@@H](CO)O2)nn1
  12, 8
- COc1ccccc1CN1[C@@H](CO)[C@@H]2c3ccccc3N(C(=O)c3ccncc3)C[C@@H]21
  11, 11
- Cc1noc(C)c1NC(=O)N(C)C[C@@H]1Oc2ccc(NC(=O)NC(C)C)cc2C(=O)N([C@H](C)CO)C[C@H]1C
  -6, 0
- O=C(Nc1ccccc1)C1=C[C@H](c2ccc(C(F)(F)F)cc2)C[C@H](OCCCCO)O1
  -5, 0
- Cc1noc(C)c1NC(=O)NCC[C@H]1CC[C@@H](NC(=O)c2ccncc2)[C@@H](CO)O1
  -12, -1
- CCC(=O)Nc1ccc2c(c1)C(=O)N(C)[C@@H]1CC[C@H](CC(=O)N[C@H](C)c3ccccc3)O[C@@H]1CO2
  -1, 10
- COc1ccc(NC(=O)N(C)C[C@@H]2Oc3ccc(N(C)C)cc3C(=O)N([C@@H](C)CO)C[C@@H]2C)cc1
  15, 3
- C[C@H]1CCCCO[C@H](CN(C)S(C)(=O)=O)[C@@H](C)CN([C@@H](C)CO)C(=O)c2cc(NC(=O)c3ccncc3)ccc2O1
  16, 8
- COc1ccc(S(=O)(=O)N(C)C[C@H]2Oc3ccc(NC(=O)Nc4ccc5c(c4)OCO5)cc3C(=O)N([C@@H](C)CO)C[C@H]2C)cc1
  2, 6
- O=C(C[C@@H]1C=C[C@H](NC(=O)CCN2CCCCC2)[C@@H](CO)O1)Nc1ccc(-c2ccccc2)cc1
  ?, .
- C[C@H]1CN([C@@H](C)CO)C(=O)c2cc(C#CC3CC3)cnc2O[C@H]1CN(C)C(=O)Nc1ccc(F)cc1
  5, 1
- C[C@@H]1CN([C@H](C)CO)C(=O)c2cc(NS(=O)(=O)c3ccccc3)ccc2O[C@@H](C)CCCCO[C@H]1CN(C)Cc1ccc(Cl)c(Cl)c1
  ?, .

Rewritten with bars between the fields: entries from further up.
Compound | Vaccinia stage | Vaccinia stage Venus
Cc1noc(C)c1NC(=O)N(C)C[C@@H]1Oc2ccc(NC(=O)NC(C)C)cc2C(=O)N([C@H](C)CO)C[C@H]1C | -6 | 0
O=C(Nc1ccccc1)C1=C[C@H](c2ccc(C(F)(F)F)cc2)C[C@H](OCCCCO)O1 | -5 | 0
Cc1noc(C)c1NC(=O)NCC[C@H]1CC[C@@H](NC(=O)c2ccncc2)[C@@H](CO)O1 | -12 | -1
CCC(=O)Nc1ccc2c(c1)C(=O)N(C)[C@@H]1CC[C@H](CC(=O)N[C@H](C)c3ccccc3)O[C@@H]1CO2 | -1 | 10
COc1ccc(NC(=O)N(C)C[C@@H]2Oc3ccc(N(C)C)cc3C(=O)N([C@@H](C)CO)C[C@@H]2C)cc1 | 15 | 3
C[C@H]1CCCCO[C@H](CN(C)S(C)(=O)=O)[C@@H](C)CN([C@@H](C)CO)C(=O)c2cc(NC(=O)c3ccncc3)ccc2O1 | 16 | 8

Remaining list, next part:
Each structure is followed by: Vaccinia stage, Vaccinia stage Venus
- O=C(C1=C[C@H](c2ccc(C(F)(F)F)cc2)C[C@H](OCCCCO)O1)N1CCCCCCC1
  11, 18
- C[C@H](CO)N1C[C@H](C)[C@@H](CN(C)S(=O)(=O)c2ccc(Oc3ccccc3)nc2)OCc2cn(nn2)CCCC1=O
  10, 4
- CC(C)CC#Cc1ccc2c(c1)O[C@H](CN(C)C(=O)Cc1ccccc1)[C@H](C)CN([C@@H](C)CO)S2(=O)=O
  ?, .
- O=C(c1cccc(F)c1)N1C[C@@H]2[C@H](c3ccccc31)[C@@H](CO)N2C(=O)C1CCCCC1
  18, 12
- COc1ccc(NC(=O)N2C[C@H]3[C@@H](c4ccccc42)[C@@H](CO)N3C(=O)C2CC2)cc1
  3, 10
- Cc1noc(C)c1NC(=O)Nc1ccc2c(c1)C(=O)N([C@H](C)CO)C[C@H](C)[C@@H](CN(C)Cc1ccncc1)OCCCC[C@@H](C)O2
  13, 8
- COc1ccc(CN(C)C[C@H]2OCCCC[C@H](C)Oc3ccc(NS(=O)(=O)c4ccc(Cl)cc4)cc3C(=O)N([C@H](C)CO)C[C@H]2C)cc1
  ?, .
- O=C(C[C@@H]1C=C[C@@H](NC(=O)c2ccncc2)[C@H](CO)O1)NCc1ccncn1
  11, 14
- COc1cccc(C(=O)N2C[C@H]3[C@@H](c4ccccc42)[C@H](CO)N3C(=O)c2ccccc2)c1
  -9, 8
- C[C@@H]1CN([C@H](C)CO)C(=O)c2cccc(NC(=O)c3ccc(-c4nccs4)cc3)c2O[C@H]1CN(C)S(=O)(=O)c1cn(C)cn1
  -1, 3
- C[C@@H]1CN([C@@H](C)CO)C(=O)c2cccc(NC(=O)Nc3ccccc3)c2O[C@H]1CN(C)Cc1ccc(Oc2ccccc2)cc1
  -16, -9
- COc1ccc(-c2ccccc2[C@H]2[C@@H](CO)N(C(=O)C3CCOCC3)[C@H]2C#N)cc1
  2, -1
- C[C@H]1CCCCO[C@H](CN(C)C(=O)c2ccccc2)[C@@H](C)CN([C@@H](C)CO)C(=O)c2cc(NC(=O)NC3CCCCC3)ccc2O1
  -33, -24
- C[C@@H]1CN([C@H](C)CO)C(=O)c2cc(-c3cncnc3)cnc2O[C@H]1CN(C)C(=O)c1cccc(F)c1
  12, 2
- C[C@H]1CN([C@@H](C)CO)C(=O)c2c(c3ccccc3n2C)-c2ccccc2CO[C@H]1CN(C)C(=O)CCN(C)C
  ?, .

(further entries)
Each structure is followed by: Vaccinia stage, Vaccinia stage Venus
- Cc1noc(C)c1NC(=O)Nc1ccc2c(c1)C(=O)N([C@@H](C)CO)C[C@@H](C)[C@@H](CN(C)S(=O)(=O)c1ccc(Cl)cc1)OCCCC[C@@H](C)O2
  2, -7
- O=C(c1cnccn1)N1CC(=O)N2[C@H](C1)[C@@H](c1ccc(-c3ccc(F)cc3)cc1)[C@@H]2CO
  -5, -4
- C[C@H](CO)N1C[C@H](C)[C@@H](CN(C)C)Oc2ncc(C#Cc3cccnc3)cc2C1=O
  8, 5
- C[C@@H]1CN([C@H](C)CO)C(=O)c2cc(-c3cccnc3)cnc2O[C@@H]1CN(C)C(=O)c1cccc(F)c1
  12, 16
- COCCNC(=O)C[C@H]1C=C[C@H](NC(=O)NC2CCCC2)[C@@H](CO)O1
  -5, 6
- C[C@H]1CN([C@@H](C)CO)C(=O)c2cccc(NC(=O)Nc3ccccc3)c2O[C@H]1CN(C)C
  -2, 3
- N#C[C@@H]1[C@H](c2ccc(C#Cc3cccc(F)c3)cc2)[C@@H](CO)N1C(=O)C1CCC1
  -16, 3
- CN(C)CC#Cc1ccc([C@@H]2[C@H](CO)N3CCCCN(C(=O)C4CCC4)C[C@@H]23)cc1
  7, 3
- C[C@H](CO)N1C[C@H](C)[C@@H](CN(C)C(=O)C2CC2)Oc2cc(Br)ccc2S1(=O)=O
  -1, -3
- C[C@H](CO)N1C[C@H](C)[C@H](CN(C)S(=O)(=O)c2cccs2)OCc2cn(nn2)CCCC1=O
  2, 8
- C[C@@H]1CN([C@@H](C)CO)C(=O)c2cc(NS(=O)(=O)c3cccs3)ccc2O[C@@H](C)CCCCO[C@@H]1CN(C)C(=O)CCCN(C)C
  39, 25
- COc1ccc(C(=O)N2C[C@@H]3[C@H](c4ccccc42)[C@H](CO)N3Cc2ccccc2)cc1
  8, 10
- CC(C)NC(=O)N(C)C[C@@H]1Oc2ccc(NS(=O)(=O)c3ccc(F)cc3)cc2CC(=O)N([C@H](C)CO)C[C@H]1C
  1, 1
- CC(C)C#Cc1cnc2c(c1)C(=O)N([C@@H](C)CO)C[C@H](C)[C@@H](CN(C)C(=O)c1ccccc1F)O2
  1, -1
- C[C@H](CO)N1C[C@H](C)[C@H](CN(C)C(=O)NC2CCCCC2)Oc2ccc(NC(=O)Cc3cn(C)c4ccccc34)cc2CC1=O
  14, 6

(further entries)
Each structure is followed by: Vaccinia stage, Vaccinia stage Venus
- C[C@H]1CN([C@@H](C)CO)C(=O)c2cccc(NS(=O)(=O)c3ccc(Cl)cc3)c2O[C@H]1CN(C)C(=O)Nc1ccccc1
  -10, -4
- Cc1noc(C)c1NC(=O)N(C)C[C@H]1Oc2ccc(NC(=O)CCN3CCOCC3)cc2CC(=O)N([C@H](C)CO)C[C@H]1C
  5, 5
- CC(C)NC(=O)Nc1cccc2c1O[C@H](CN(C)C(=O)Nc1ccc(C(F)(F)F)cc1)[C@@H](C)CN([C@@H](C)CO)C2=O
  7, 6
- COc1ccc(C#Cc2ccc([C@@H]3[C@@H](CO)N4C(=O)CN(C(=O)NC(C)C)C[C@@H]34)cc2)cc1
  -10, 1
- COc1cccc(C#Cc2ccc([C@H]3[C@@H](CO)N(C(=O)C4CCOCC4)[C@H]3C#N)cc2)c1
  -8, -7
- C[C@@H]1CCCCO[C@@H](CN(C)Cc2ccccc2)[C@H](C)CN([C@H](C)CO)C(=O)c2cc(NS(C)(=O)=O)ccc2O1
  -10, -12
- C/C=C/c1cnc2c(c1)C(=O)N([C@@H](C)CO)C[C@@H](C)[C@@H](CN(C)Cc1ccccc1)O2
  27, 9
- C[C@@H]1CN([C@H](C)CO)C(=O)c2cccc(NC(=O)c3nc4ccccc4s3)c2O[C@H]1CN(C)S(=O)(=O)c1ccc(Cl)cc1
  -32, -35
- C[C@@H]1CN([C@H](C)CO)S(=O)(=O)c2ccc(C#C[C@@H](C)O)cc2O[C@@H]1CN(C)C(=O)c1ccccc1
  13, 4
- O=C(Cc1ccccn1)N1CCCCN2[C@@H](CO)[C@@H](c3ccc(-c4ccccc4F)cc3)[C@@H]2C1
  -27, -26
- O=C(O)C1=C[C@@H](c2ccccc2)C[C@@H](OCc2ccc(CO)cc2)O1
  5, 0
- CC(=O)N(C)C[C@H]1Oc2cc(-c3cccc(C#N)c3)ccc2S(=O)(=O)N([C@@H](C)CO)C[C@@H]1C
  24, 14
- C[C@@H]1CN([C@H](C)CO)C(=O)c2cccc(NC(=O)CCCCCC(=O)Nc3ccccc3N)c2O[C@H]1CN(C)C(=O)Nc1ccc(F)cc1
  -1, -6
- COCC#Cc1cnc2c(c1)C(=O)N([C@H](C)CO)C[C@@H](C)[C@H](CN(C)C(=O)C1CCOCC1)O2
  14, 7
- C[C@@H]1CCCCO[C@@H](CN(C)C(=O)CCC(F)(F)F)[C@@H](C)CN([C@H](C)CO)C(=O)c2cc(NC(=O)c3ccccc3)ccc2O1
  22, 16

Single records (already shown). Values in the order: Vaccinia stage | Vaccinia stage Venus
Profile of CC(=O)N(C)C[C@H]1Oc2cc(-c3cccc(C#N)c3)ccc2S(=O)(=O)N([C@@H](C)CO)C[C@@H]1C : 24 | 14
Profile of C[C@@H]1CCCCO[C@@H](CN(C)C(=O)CCC(F)(F)F)[C@@H](C)CN([C@H](C)CO)C(=O)c2cc(NC(=O)c3ccccc3)ccc2O1 : 22 | 16

The list goes on.
Each structure is followed by: Vaccinia stage, Vaccinia stage Venus
- C[C@H]1CCCCO[C@H](CN(C)Cc2ccc(C(=O)O)cc2)[C@@H](C)CN([C@@H](C)CO)C(=O)c2cc(NS(=O)(=O)c3ccc(F)cc3)ccc2O1
  33, 13
- CO[C@H]1CN(C)C(=O)c2cc(NC(=O)c3ccccc3F)ccc2OC[C@@H](C)NC[C@@H]1C
  6, 9
- C[C@H](CO)N1C[C@H](C)[C@H](CN(C)C(=O)NC2CCCCC2)Oc2ccc(NC(=O)Nc3cccc4ccccc34)cc2C1=O
  -9, -1
- CO[C@@H]1CN(C)C(=O)c2ccc(NS(C)(=O)=O)cc2OC[C@H](C)N(C(=O)C2CCOCC2)C[C@H]1C
  3, 7
- COc1ccc(S(=O)(=O)Nc2ccc3c(c2)CC(=O)N([C@H](C)CO)C[C@@H](C)[C@@H](CN(C)Cc2ccc(C(F)(F)F)cc2)O3)cc1
  ?, .
- C[C@@H]1CN([C@H](C)CO)C(=O)c2cc(NC(=O)Cn3cnnn3)ccc2O[C@@H]1CN(C)Cc1ccccc1
  8, 4
- C[C@H](O)C#Cc1cnc2c(c1)C(=O)N([C@@H](C)CO)C[C@@H](C)[C@H](CN(C)C(=O)CN1CCOCC1)O2
  14, 2
- C[C@H](CO)N1C[C@H](C)[C@@H](CN(C)CC2CC2)Oc2ccc(NC(=O)Cc3ccccc3)cc2CC1=O
  7, 7
- C[C@@H]1CN([C@@H](C)CO)C(=O)c2cc(NS(=O)(=O)c3cccs3)ccc2O[C@@H](C)CCCCO[C@@H]1CN(C)C(=O)Nc1ccc(C(F)(F)F)cc1
  ?, .
- COc1ccc(CN(C)C[C@H]2Oc3c(NC(=O)Nc4ccccc4)cccc3C(=O)N([C@H](C)CO)C[C@H]2C)cc1
  -1, 3
- CCC(=O)N1CC[C@H]2[C@@H]1c1cc(-c3cccc(OC)c3)ccc1N(C)[C@H]2CO
  -5, -5
- COc1cccc(CNC(=O)[C@H]2[C@H](CO)[C@H]3Cn4c(ccc(C5=CCCCC5)c4=O)[C@@H]2N3)c1
  2, -6
- C[C@H]1CCCCO[C@@H](CN(C)C(=O)Nc2ccc(C(F)(F)F)cc2)[C@@H](C)CN([C@@H](C)CO)C(=O)c2cc(NS(=O)(=O)c3ccc(F)cc3)ccc2O1
  -19, -10
- CN(C)C(=O)C[C@@H]1CC[C@H](NC(=O)c2ccc(F)cc2)[C@H](CO)O1
  4, 6
- C[C@@H]1CCCCO[C@H](CN(C)C)[C@@H](C)CN([C@H](C)CO)C(=O)c2cc(NC(=O)NC3CCCCC3)ccc2O1
  12, 6
- C[C@@H]1CN([C@@H](C)CO)C(=O)c2cc(NC(=O)Nc3ccccc3)ccc2O[C@@H](C)CCCCO[C@@H]1CN(C)C(=O)c1ccccc1
  17, 9
- CCCNC(=O)c1cc2c(c(-c3cccc(-c4ccc(F)cc4)c3)n1)[C@H](CCO)N([S@@](=O)C(C)(C)C)C2
  ?, .
